# RE007 growth inh – less growth of the S. pombe RE007 Vpr strain. S. pombe RE007 Vpr strain, BacTiter-Glo ATP luminescence, 24 h; control for the full effect not named in the record. AID 651644. hit rate 0.21% among 360,000. Potency, µM (highest dose often 92.2 µM), for the others: top-dose activity change, negative = less growth; active = well fitted falling curve with a large enough effect; inconclusive = small, poorly fitted or top-dose-only effect; inactive = no such curve, though single readings can be large or run the other way;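 also: % is scaled to controls: 0 for no effect and ±100 for the full control effect; nearly all actives have a fitted effect of over 50% in size; the assay follows cell death caused by Vpr and the record does not say whether a fall means rescue or toxicity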
#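 Fission yeast strain RE007, carrying one chromosomally integrated HIV-1 vpr copy, was seeded at OD 0.01 in PMG+AL medium with 23 nL pinned compound. After 24 h at 30 °C and 99% humidity, viability was read by BacTiter-Glo luminescence.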
# LASV entry inh – inhibitors of Lassa virus binding or cell entry; Lassa virus pseudotype entry inhibition, cell reporter; control for the full effect not named in the record; Potency, µM (series often up to 37.9 µM), for inactives: at the top dose activity change, negative = inhibition, actives largely listed as inhibitors; hit rate 1.2% among 300,000; AID 540256; active means well fitted inhibition curve with a large enough effect; inconclusive means small, poorly fitted or top-dose-only effect, or effect the other way; inactive means flat fitted curve, though single readings scatter; tested in HEK293 cells; also: % is scaled to controls: 0 for no effect and ±100 for the full control effect; nearly all actives have a fitted effect of over 50% in size; luciferase read-out
# NS1 inh – blocks influenza NS1 protein function. AID 2326. Potency, µM (top dose mostly 46.1 µM), inactives show at the top dose activity, positive = more growth. S. cerevisiae slowed by influenza A NS1, growth recovery by OD600. hit rate 0.4% among 270,000; also: actives are rising curves; nearly all actives have a fitted effect of over 50% in size
#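 OD600 was taken as the measure of yeast growth restored by compound in an NS1-expressing S. cerevisiae strain. Cells had been washed out of glucose medium and diluted 1:100 into galactose -URA medium, pH 6.0.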
# SARS PLpro yeast – blocks SARS-CoV papain-like protease in a yeast assay. S. cerevisiae expressing SARS-CoV PLpro, growth rescue; control for the full effect not named in the record. Potency, µM (doses to about 32.9 µM), for the others: at the highest dose activity, positive = growth rescue. hit rate 0.19% among 330,000; also: 0% is about no effect; nearly all actives have a fitted effect of over 55% in size; growth read by luminescence after 48 h
# Marburg entry inh – inhibitors of Marburg virus binding or cell entry. Marburg virus pseudotyped entry inhibition, cell reporter; control for the full effect not named in the record; about a third of the inactives were read at about 46 µM. Potency, µM (top dose mostly 37.8 µM), for inactives: at the top dose activity change, negative = inhibition, usual class: inhibitors. hit rate 1.8% among 300,000. AID 540276; active = well fitted inhibition curve with a large enough effect; inconclusive = small, poorly fitted or top-dose-only effect, or effect the other way; inactive = flat fitted curve, though single readings scatter; tested in HEK293 cells; about a fifth of its hits are not listed in these tables; also: % is scaled to controls: 0 for no effect and ±100 for the full control effect; luciferase read-out
# StopGo reporter – FMDV 2A StopGo reporter, luciferase signal. human cells with a luciferase reporter of 2A StopGo recoding; control for the full effect not named in the record. Potency, µM (series often up to 57.9 µM), without a hit: at the highest dose signal change, negative = less light. hit rate 1.2% among 410,000. AID 1159524; active = well fitted falling curve with a large enough effect; inconclusive = small, poorly fitted or top-dose-only effect; inactive = no such curve, though single readings can be large or run the other way; tested in HEK293T cells; also: % is scaled to controls: 0 for no effect and ±100 for the full control effect; nearly all actives have a fitted effect of over 45% in size; luciferase light after 4 h
# Cruzain inh Det – blocks cruzain activity in presence of Triton detergent; hit rate 0.43% among 200,000; Potency, µM, for inactives: max response, negative = inhibition, most hits filed as inhibitors; P25779; purified cruzain, Z-FR-AMC fluorescence, 0.01% Triton; active = well fitted curve in the direction sought with a large enough effect; inconclusive = small, poorly fitted or top-dose-only effect, or another doubt; inactive = no such curve, though single readings can be large; an effect the other way counts as inactive or inconclusive;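 also: plate controls were neutral wells for no effect and buffer without enzyme for full effect; nearly all actives have a fitted effect of over 40% in size; top concentration of the series not given in the record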
# Target sequence (P25779 123-467 limits assumed): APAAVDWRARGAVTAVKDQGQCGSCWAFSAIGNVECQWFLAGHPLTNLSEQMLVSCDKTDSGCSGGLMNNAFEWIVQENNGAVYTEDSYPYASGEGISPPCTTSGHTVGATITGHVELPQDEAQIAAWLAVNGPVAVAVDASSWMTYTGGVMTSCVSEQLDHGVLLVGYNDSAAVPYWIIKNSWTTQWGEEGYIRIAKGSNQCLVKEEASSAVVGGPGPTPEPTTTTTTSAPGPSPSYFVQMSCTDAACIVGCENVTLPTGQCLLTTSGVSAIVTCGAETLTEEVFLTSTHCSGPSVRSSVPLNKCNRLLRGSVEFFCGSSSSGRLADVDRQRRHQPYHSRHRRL
#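 Steps: dispense cruzain (1.5 nM final) in acetate buffer pH 5.5 with DTT and 0.01% Triton X-100; pin-transfer compounds; incubate 15 min RT; add Z-FR-AMC (2 uM final); read fluorescence every 30 s, using the 60 s intensity change.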
# Cruzain noTriton – blocks cruzain activity in detergent-free assay. purified cruzain, Z-FR-AMC fluorescence, no detergent. hit rate 2.3% among 200,000. Potency, µM, without a hit: max response, negative = inhibition, actives largely listed as inhibitors. AID 1476; active = well fitted curve in the direction sought with a large enough effect; inconclusive = small, poorly fitted or top-dose-only effect, or another doubt; inactive = no such curve, though single readings can be large; an effect the other way counts as inactive or inconclusive;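 also: plate controls were enzyme without inhibitor for no effect and buffer without enzyme for full effect; nearly all actives have a fitted effect of over 40% in size; top concentration of the series not given in the record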
#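 Purified cruzain at 1.5 nM, pre-incubated 15 min with compound at room temperature in 100 mM sodium acetate pH 5.5, 5 mM DTT, 0.00005% Triton X-100. Reaction started with 2 uM Z-FR-AMC; AMC fluorescence increase over 60 s gives rate.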
# An asterisk follows results filed as active; ? = inconclusive; . = no result given; & = joins results of further samples; [ ] = dose if it differs, or a comment. Unless noted, calls follow the shape of the dose curve; as a rule, active means well fitted rising curve with a large enough effect; inconclusive means small, poorly fitted or top-dose-only effect; inactive means no such curve, though single readings can be large or run the other way. Potency is read from the fitted curve at half-maximal effect.
SMILES,RE007 growth inh,LASV entry inh,NS1 inh,SARS PLpro yeast,Marburg entry inh,StopGo reporter,Cruzain inh Det,Cruzain noTriton
CC1CCc2cc(F)ccc2N1C(=O)c1cccs1 (stereo not given),-14.0%,26.4%[46.1 µM],-8.3%,0.3%,?,10.4%,.,.
Clc1ccc(Cl)c(-c2nn3c(Cn4cnc5ccccc54)nnc3s2)c1,-1.7%,2.3%,4.1%,.,4.4%&-14.9%,.,.,.
O=C(O)c1ccc(CSCc2ccccc2Cl)o1,1.7%,.,1.0%,-1.2%,.,15.3%,.,.
COc1ccc(Nc2nc(C(=O)N3CCc4cc(OC)c(OC)cc4C3)cs2)cc1,6.3%,.,-37.5%,-13.0%,.,-28.8%,.,.
C=CCN1C(=O)C2C3CC(=O)C(c4ccccc43)C2C1=O (stereo not given),7.8%,3.0%,.,2.0%,3.7%[46.1 µM],-1.9%,.,.
COc1cccc(C(=O)NC(c2ccccc2)C2CCCC2)c1 (stereo not given),-17.5%,1.5%,-1.0%,0.3%,.,-15.2%,.,.
COc1cccc(-n2c(SCC(N)=O)nnc2-c2ccncc2)c1,19.0%,22.7%,4.7%,-8.1%,-2.9%,.,1.0%,-9.9%
COc1cc(NC(=O)c2ccc(C)cc2C)ccc1NC(=O)c1cc2ccccc2o1,-9.6%,.,8.3%,2.7%,.,-30.5%,.,.
COc1ccc(-c2noc(CCC(=O)N3CCN(Cc4ccccc4)CC3)n2)cc1,11.1%,-18.4%,-61.5%,2.1%,-20.4%,-2.5%,1.5%,8.0%
CCC(C)(C)c1ccc(OCCN2C(=O)NC(C)(C)C2=O)cc1,-3.2%[3.69 µM],-20.4%,-3.6%,3.5%,2.5%,0.0%,-0.4%,?
Cc1ccccc1CSCC(=O)NC1CCCC1,4.5%,0.4%,0.1%,-3.2%,?,19.0%,3.0%,-2.9%
Nc1c(-c2ccccc2)cnn1-c1ccccc1,-12.1%,.,-6.5%,-4.4%,.,45.5%[activator],.,.
O=c1[nH]c2c(c(=O)[nH]1)CCC2,4.6%,-16.6%[46.1 µM],.,0.5%,9.6%[46.1 µM],-1.2%,.,.
CC(=O)Nc1ccc(Nc2nc(C)c([N+](=O)[O-])c(N(C)c3ccccc3)n2)cc1,-8.1%,?,8.3%,-0.9%,-16.1%,31.6µM*,.,.
O=C(NNC1CCN(Cc2ccccc2)CC1)c1ccccc1,?,15.9%,.,.,12.9%,20.9%,.,.
Cc1cc(C)nc(CCNC(=O)c2cc(COc3ccc(F)cc3Cl)on2)n1,-2.4%,0.6%[46.1 µM],-7.3%,-1.1%,-10.8%[46.1 µM],-7.9%,.,.
O=C(CCN1CCc2ccccc2C1)Nc1ccc(F)cc1,5.0%,-0.7%,-13.8%,0.9%,-9.5%,-8.8%,1.6%,-8.3%
Cc1ccc(NC(=S)N2CCC(C(N)=O)(N3CCCCC3)CC2)c(C)c1,-3.5%,-0.6%,1.1%,1.3%,15.3%[46.1 µM],-23.9%,.,.
COc1ccccc1NS(=O)(=O)c1ccc2c(c1)CCN2C(=O)CCC(=O)O,4.4%,?,9.7%,-1.6%,-17.2%[46.1 µM],6.4%,.,.
CC(OC(=O)/C=C/c1ccccc1)C(=O)N1CCc2ccccc21 (stereo not given),5.7%,6.0%,.,.,11.4%,-12.6%,.,.
CCOc1ccc(N2C(=O)CSC2c2ccncc2)cc1 (stereo not given),9.3%,0.3%,-4.4%,-7.8%,18.3%,22.6%,1.0%,0.9%
CC(C)c1ccc(NC(=O)CCNS(=O)(=O)c2ccc3[nH]c(=O)oc3c2)cc1,-3.6%,.,-2.6%,-0.2%,.,19.5%,.,.
CCc1cc(-c2n[nH]c(=S)n2CC)cs1,41.9%,8.9%,5.8%,22.6%,-3.3%,-12.9%,-4.4%,0.0%
COc1ccc(OC)c2sc(N(CCCN(C)C)C(=O)CCS(=O)(=O)c3ccccc3)nc12,2.6%,-25.2%,.,-3.9%,?,35.5µM*,.,.
O=C(O)CNC(=O)/C(=C\c1cccc([N+](=O)[O-])c1)NC(=O)c1ccco1,13.4%,-4.3%,13.3%,1.6%,10.7%[46.1 µM],18.1%,.,.
COc1ccc2cc(C3=CC(=O)CCC3)ccc2c1,-0.4%,?,.,.,?,-11.4%,.,.
C=C(C)COc1ccc(-c2n[nH]c(C)c2-c2ccc(Br)cc2)c(O)c1,-28.4%,0.366µM*,-75.6%,-33.4%,?,.,4.8%,-13.3%
Cc1cc2cc(CNC(=O)c3ccc(C)c([N+](=O)[O-])c3)ccc2[nH]1,7.8%,?,8.91µM*,-20.0%,-28.1%,-8.3%,-3.1%,?
COc1ccc(/C=C/c2nc(-c3ccccc3O)n[nH]2)cc1OC,-16.3%,1.7%,-28.0%,-29.3%,-2.3%,-10.8%,-14.6%,83.3%
COc1ccc(C(=O)C2CCCN(Cc3ccc(F)cc3F)C2)cc1F (stereo not given),-9.2%,.,4.2%,8.9%,.,-10.8%,.,.
COc1cccc(CNC(=O)CCC2CCCN(C(=O)c3cccnc3SC)C2)c1 (stereo not given),-11.7%,.,8.6%,2.7%,.,-0.5%,.,.
CC(C)CCn1nc(C(=O)Nc2nc3c(s2)CCCC3)c2ccccc2c1=O,0.5%,?,21.0%,19.5%,?,-1.7%,-4.8%,-9.9%
Cc1ccc(S(=O)(=O)N(C)c2ccc(C(=O)NCCc3ccccc3)cc2)cc1,3.4%,?,1.5%,9.5%,?,3.4%,.,.
CCOC(=O)c1ccc(NC(=O)CN(c2ccc(C)cc2)S(=O)(=O)c2c(C)nn(C)c2C)cc1,-7.9%,-15.0%,11.2%,-10.3%,-7.6%,.,-1.2%,?
O=C(Nc1ccc(S(=O)(=O)Nc2ccc(F)cc2)cc1)c1ccc(CN2CCOCC2)cc1,0.8%,?,-2.5%,0.9%,?,?,.,.
NC(=O)NOCc1cccc(Cl)c1,-14.4%,.,5.9%,-1.1%,-1.3%[46.1 µM],-5.3%,.,.
COc1ccc(CC(=O)Oc2ccc(F)c(F)c2)cc1S(=O)(=O)N1CCOCC1,-12.8%,-7.5%,.,-1.4%,17.5%,-23.8%,.,.
COc1ccc(C(=O)NCc2ccc3c(c2)cc(C)n3C)cc1,5.8%,.,28.2%,0.1%,.,5.7%,.,.
O=C(CCNS(=O)(=O)c1ccccc1)OCC(=O)c1ccc(Cl)cc1,-7.4%,10.0%,.,?,9.4%,-15.7%,.,.
CCOc1ccc(NC(=S)NC(=O)c2c(Cl)cnn2CC)c([N+](=O)[O-])c1,11.1%,-6.2%,5.8%,12.8%,2.4%,-14.2%,-9.9%,-3.4%

# 2 consecutive records already listed:
SMILES,RE007 growth inh,LASV entry inh,NS1 inh,SARS PLpro yeast,Marburg entry inh,StopGo reporter,Cruzain inh Det,Cruzain noTriton
CCOc1ccc(N2C(=O)CSC2c2ccncc2)cc1 (stereo not given),9.3%,0.3%,-4.4%,-7.8%,18.3%,22.6%,1.0%,0.9%
CC(C)c1ccc(NC(=O)CCNS(=O)(=O)c2ccc3[nH]c(=O)oc3c2)cc1,-3.6%,.,-2.6%,-0.2%,.,19.5%,.,.

# Following part.
SMILES,RE007 growth inh,LASV entry inh,NS1 inh,SARS PLpro yeast,Marburg entry inh,StopGo reporter,Cruzain inh Det,Cruzain noTriton
CCOC(=O)CSc1nc2ccc(NC(=O)COc3ccccc3C)cc2s1,.,-0.2%[46.1 µM],.,.,5.3%[46.1 µM],-15.4%,-2.9%,-3.2%
COc1ccc2nc(/N=C(\N)NC(=O)Nc3ccccc3)nc(C)c2c1,-8.2%,5.9%,8.0%,-15.3%,-30.2%,-14.9%,-23.9%,?
CCNC(=S)N/N=C/c1cccc(/C=N/NC(=S)NCC)c1,4.1%,6.4%,4.2%,-0.1%,-14.0%[46.1 µM],-7.1%,.,.
Clc1ccc(CON/C=N/c2ncnc3sccc23)cc1,-10.4%,?,2.6%,-0.8%,-9.7%,?,-3.6%,1.0%
Cc1ccc(Cn2c(SC(C)C(N)=O)nc3ccccc3c2=O)cc1 (stereo not given),7.1%,0.4%[46.1 µM],.,6.8%,0.0%[46.1 µM],16.3%,.,.
COc1ccccc1C1c2[nH]c3ccccc3c2CCN1Cc1ccc(NC(C)=O)s1 (stereo not given),-26.4%,.,-13.5%,-3.9%,.,-28.8%,.,.
Oc1ccccc1/C=N/NC1=NCCCCC1,15.5%,?,11.5%,-3.4%,-0.2%,33.0%[activator],-3.9%,0.6%
CN(C)c1ccc(C(CNS(=O)(=O)c2ccc([N+](=O)[O-])cc2)N2CCCC2)cc1 (stereo not given),-0.6%,13.4%,.,-4.5%,?,-13.4%,.,.
COCCCNC(=O)CC(NS(=O)(=O)c1ccc(Cl)cc1)c1ccco1 (stereo not given),-5.4%,-8.1%,-4.8%,-1.2%,35.0%,-18.4%,0.0%,6.3%
Cc1ccc2nc(NC(=O)c3cc(=O)c4cc(C)c(C)cc4o3)sc2c1,.,9.6%[46.1 µM],.,.,8.0%[46.1 µM],-0.3%,0.3%,-2.2%
COc1ccc(CN2CCNC(=O)C2CC(=O)N2CCCN(C(C)=O)CC2)cc1OC (stereo not given),-7.8%,.,-6.3%,7.2%,.,6.4%,.,.
C/C(=N/NC(=O)c1ccccc1)C1=C(O)CC(C)(C)CC1=O,8.8%,.,-5.7%,0.3%,.,10.6%,.,.
Cc1ccc(C)c(NS(=O)(=O)c2ccc(OCC(=O)NCc3cccnc3)cc2)c1,12.4%,-2.2%,10.5%,6.3%,-33.3%,-17.0%,-1.7%,15.1%
CCOC(=O)CC(NC(=O)C1c2ccccc2Oc2ccccc21)c1ccc(C)cc1 (stereo not given),16.3%,-10.8%,-5.3%,-16.5%,?,21.8%,1.6%,14.7%
CCc1ccc(C(=O)c2cn(CC(=O)Nc3ccc(F)c(F)c3)c3cc(OC)c(OC)cc3c2=O)cc1,.,-26.3%[46.1 µM],.,.,-2.7%[46.1 µM],?,-8.1%,15.9%
CCc1ccc(CN(Cc2ccco2)C(=O)c2ccccc2Cl)cc1,.,-14.2%[46.1 µM],.,.,?,-14.2%,-9.3%,-7.5%

# Screening results as filed in PubChem.
